# Screening results: PubChem, ICCB-Longwood Screening Facility, Harvard Medical School
# fixLJ activator – activators of Burkholderia fixLJ two-component system, primary screen, B. multivorans, GFP reporter; B. multivorans fixK-promoter GFP reporter, 18 h; active compounds read high; z-score (no concentration beside the values); 29,000 compounds, 0.3% hits;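 active means replicate mean overnight rise in green fluorescent reporter signal, 3 or more SD over negative controls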;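 further: score is relative to vehicle wells of the plate; 300 nL library stock went into each well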
# Starred values were filed as active, the others as inactive; & = joins results of further samples. These rows are one share of the data, so the mix of outcomes need not match the whole.
SMILES	fixLJ activator
Cc1cc(C)n2nc(CNC(=O)c3ccc(Cl)cc3)nc2n1	-1.1
Cc1cc(NC(=O)C2CCC(CNS(=O)(=O)c3ccc(Br)s3)CC2)ccc1Br (configuration not stated)	-0.36
CC(=O)NCc1cc2n(n1)CCN(S(=O)(=O)c1c(C)nn(C(C)C)c1C)C2	-3.2
COCCCn1c(-c2ccc(S(=O)(=O)N3CCOCC3)cc2)csc1=Nc1ccccc1	-0.78
Cc1cccc(NC(=O)c2ccc3snnc3c2)c1	-1.4
O=C(Nc1ccc(OCc2cc(=O)n3ccsc3n2)cc1)c1ccc(F)cc1	-1.8
O=S(=O)(c1ccccc1)c1nc(-c2ccc(F)cc2)oc1N1CCCCCC1	0.71
CC1CCCCN1C(=O)CSc1c2c(nc3cc(Cl)ccc13)CCCC2 (configuration not stated)	-2.8
COc1cc(S(=O)(=O)NCCc2c(C)[nH]c3ccccc23)c(C)cc1C	-0.53
CCOc1ccc(C(=O)Nc2ccc3oc(-c4ccncc4)nc3c2)cc1	-0.3

# More structures.
SMILES	fixLJ activator
CS(=O)(=O)c1ccc(C2(C(=O)NCC3CCCO3)CCCCC2)cc1 (configuration not stated)	1.6
CCOc1cccc(C(=O)N(Cc2ccc(C)o2)C2CCS(=O)(=O)C2)c1 (configuration not stated)	-0.09
COc1ccccc1NC(=O)C1=C(C)Nc2nc(SCc3ccccc3F)nn2C1c1cccnc1 (configuration not stated)	-1.3
O=C(NC1CCNC1)c1ccccc1S(=O)(=O)Cc1ccccc1 (configuration not stated)	-2.2
CCCC(=O)Nc1ccc(NC(=O)c2ccn(C)c2C)cc1OC	-0.44
COc1ccccc1-c1noc(CCC(=O)NC2CS(=O)(=O)CC2OC)n1 (configuration not stated)	-0.7
COc1ccc(Cn2c(SCc3ccc(C(=O)NC4CCCCC4)cc3)nc3ccncc32)cc1	-3.2
O=C(c1cccs1)c1cn(CCOc2ccccc2Cl)c2ccccc12	-0.97
COc1ccccc1OCC(O)CO (configuration not stated)	-1&-0.06
COc1ccc(Cl)cc1CNCCSc1nnnn1C	-2.5

# Next structures follow:
SMILES	fixLJ activator
COc1ccc(OC)c(CCNC(=O)c2cc3c(s2)-c2c(C)cccc2OC3)c1	1.3
CC1CN(c2ccccc2-c2ccccc2)C(=O)CN1C(=O)CCC(N)=O (configuration not stated)	-0.79
O=C(Cc1ccc(Cl)cc1)Nc1ccc2oc(-c3ccccc3F)nc2c1	-1.1
CCc1cccc(NC(=O)CCc2nc3cccnc3n2-c2ccccc2)c1	-0.28
CCOc1ccc(CNC(=O)c2cc3c(=O)n(C)c4ccccc4c3s2)cc1	-0.8
Cc1cc(=O)n2nc(N3CCC(C(=O)Nc4ccc(Br)c(C)c4)CC3)sc2n1	-2
COc1nc2ccccc2nc1CCC(=O)NCc1ccc(C)s1	-2.3
CCOc1ccc(NCc2cccn2-c2nnc(N3CCC(C(=O)NCCc4ccc(OC)c(OC)c4)CC3)s2)cc1	-0.68
COc1cccc2c1cc1c(=O)n(CC(=O)NC3CC3)nc(C)n12	-2
COc1ccc2cc3cc(C(=O)N4CCN(c5cccc(C(F)(F)F)c5)CC4)sc3nc2c1	-0.47

# Three entries from above, set out differently:
COc1nc2ccccc2nc1CCC(=O)NCc1ccc(C)s1
  fixLJ activator: -2.3
CC1CN(c2ccccc2-c2ccccc2)C(=O)CN1C(=O)CCC(N)=O (configuration not stated)
  fixLJ activator: -0.79
Cc1cc(=O)n2nc(N3CCC(C(=O)Nc4ccc(Br)c(C)c4)CC3)sc2n1
  fixLJ activator: -2

# Additional structures follow.
SMILES	fixLJ activator
CCOc1cccc(C(=O)Nc2ccc(-c3nc4cc(C)cc(C)c4o3)cc2)c1	0.12
CCOc1ccc(CN(C(=O)c2cc(=O)c3cc(C)cc(C)c3o2)C2CCS(=O)(=O)C2)cc1 (configuration not stated)	-2.6
CC(C)CC(=O)N1CCN(C(=O)c2ccco2)C2CS(=O)(=O)CC21 (configuration not stated)	0.21
Cc1coc2c1c(C)cc1oc(=O)cc(C)c12	-2.1
O=C(Cn1c(=O)n(Cc2ccccc2)c(=O)c2sc3ccccc3c21)Nc1ccccc1	-0.52
COc1ccccc1NC(=O)C1=C(C)Nc2nc(SCc3ccccc3Cl)nn2C1c1cccnc1 (configuration not stated)	-1.2
CCOc1cc(C(=O)N2CCn3c4c(c5cc(C)ccc53)CCCC42)cc(OCC)c1OCC (configuration not stated)	-2.7
COc1ccccc1-n1nc(CC(N)=O)nc1Cn1cc(Cl)c(C)n1	-0.04
COC(=O)c1cc(NC(=O)c2cc3c(-c4ccccc4F)nn(C)c3s2)cc(C(=O)OC)c1	-1.2
CC(=O)Nc1nnc(S(N)(=O)=O)s1	-1.6

# (further entries)
SMILES	fixLJ activator
CCc1cc(C(=O)N2CCC3(CCCN(CCCOC)C3=O)C2)ccn1 (configuration not stated)	-2
CCCc1nnc(NC(=O)CSc2nnc3c4ccccc4n(CC)c3n2)s1	-1.9
Cc1ccc(C)c(N2CCN(C(=O)Cn3cnc4sc(C)c(S(=O)(=O)N5CCN(c6ncccn6)CC5)c4c3=O)CC2)c1	-2.5
COc1ccc(-c2c(C)nn3c4c(cnc23)C(=O)CC(c2ccccc2)C4)cc1 (configuration not stated)	-0.43
Cc1ccc(C)c(OCC(=O)N2CCC(c3nnc4n3CCCCC4)CC2)c1C	-1.5
C=C(C)COc1ccc(C(=O)NCCCN2CCCC2=O)cc1	-0.04
O=C1CN(CC(=O)N2CCC(CNC(=O)c3c[nH]c4ccccc34)CC2)C(=O)N1	0.7
COc1ccc(Nc2nc3c(S(=O)(=O)c4ccccc4)nnn3c3ccc(Cl)cc23)cc1	-0.16
Cc1cc(C)c(NC(=O)CSc2nc3nc(C)cc(C)n3n2)c(C)c1	0.79
Cc1cccc(N(CC(=O)NCCc2ccccc2)S(=O)(=O)c2ccccc2)c1C	-0.09

# Six compounds picked at random from the list so far, as already listed:
SMILES	fixLJ activator
C=C(C)COc1ccc(C(=O)NCCCN2CCCC2=O)cc1	-0.04
COc1ccc(-c2c(C)nn3c4c(cnc23)C(=O)CC(c2ccccc2)C4)cc1 (configuration not stated)	-0.43
Cc1cccc(N(CC(=O)NCCc2ccccc2)S(=O)(=O)c2ccccc2)c1C	-0.09
COc1ccc(Nc2nc3c(S(=O)(=O)c4ccccc4)nnn3c3ccc(Cl)cc23)cc1	-0.16
Cc1cc(C)c(NC(=O)CSc2nc3nc(C)cc(C)n3n2)c(C)c1	0.79
CCc1cc(C(=O)N2CCC3(CCCN(CCCOC)C3=O)C2)ccn1 (configuration not stated)	-2

# The results go on:
SMILES	fixLJ activator
CCN(CC)c1ccc(NC(=O)c2cnn(-c3ccccc3)c2-n2cccc2)c(C)c1	1.2
Cc1cc(CC2COCC2NC(=O)CCn2c(C)cc3ccccc32)on1 (configuration not stated)	1.2
CC(C1CCN(c2nc(N)c3cnn(C)c3n2)CC1)N1CCCC1 (configuration not stated)	-0.48
O=C(CCCCn1c(=O)c2ccccc2n(Cc2ccccc2Cl)c1=O)NCCc1ccccc1	2.1
CN(C)c1nc(N)nc(CNC(=O)CSc2cn(C)c3ccccc23)n1	-0.69
CC(C)C12CN3CC(C(C)C)(CN(C1)C3c1ccc(Cl)cc1)C2=O (configuration not stated)	-3.1
Cn1cc(C(=O)NCc2ccccc2)c(=O)c2cc(S(=O)(=O)N3CCOCC3)ccc21	-1.3
CO[C@@]12CCC(Oc3ccccn3)CC1N(C(=O)Cn1ccnc1)CC2 (some centres not stated)	-0.14
Cc1nnnn1Cc1ccc(C(=O)N(C)Cc2cccc3ncccc23)cc1	-0.17
CCCSc1ncc(Cl)c(C(=O)Nc2nc3ccc(C)cc3s2)n1	-0.79

# (list continues)
SMILES	fixLJ activator
COc1ccc(NC(=O)c2oc3ccccc3c2NC(=O)c2cc(=O)c3ccccc3o2)cc1	-0.97
COc1ccccc1N(CC(=O)Nc1ccccc1C(F)(F)F)S(=O)(=O)c1ccc(C)cc1	1.3
Cc1ccc(S(=O)(=O)NCCCNc2nc(-c3ccccc3)no2)cc1	-1.6
CCOc1ccc(NC(=O)Cn2cc(C(=O)c3ccc(C)cc3)c(=O)c3cc4c(cc32)OCCO4)cc1	1.7
COc1ccc(Nc2c3c(nc4nncn24)CCC3)cc1OC	-0.26
CN(CC(=O)Nc1ccc(Cl)cn1)Cc1n[nH]c2c1CCCCC2	0.76
Cc1cccc(C)c1OCC(=O)NC(Cc1c[nH]c2ccccc12)C(=O)O (configuration not stated)	0.01
O=C(Nc1cccc(NC(=O)c2ccccc2Cl)c1)c1cccc(Br)c1	0.53
COCC(=O)NCc1cc2n(n1)CCCN(Cc1ccc(C#N)cc1)C2	-1.1
O=C(NCC1CCCN(c2cc(C3CC3)ncn2)C1)c1ccc2c(c1)OCCO2 (configuration not stated)	-2.2

# Remaining list, next part:
SMILES	fixLJ activator
Cc1ccc(C)c(Cn2c(C(C)NC(=O)c3ccc(F)cc3)nc3ccccc32)c1 (configuration not stated)	0.2
CCOc1ccccc1NC(=O)CSc1ncc(S(=O)(=O)c2ccc(C(C)(C)C)cc2)c(=O)[nH]1	0.15
Cc1ccc(NC(=O)CCS(=O)(=O)c2cccc3nsnc23)c(C)c1	-1.1
COc1cccc2c1C1(CCN(C(=O)c3ccncc3)CC1)OCC2	0.14
COc1cccc(CNC(=O)N2C3CCC2CC(=O)NC3)c1 (configuration not stated)	0.26
CCOC(=O)c1ccc(NC(=O)Nc2cc3c(cc2N2CCCC2)n(C)c(=O)n3C)cc1	-2.2
Cc1ccc(-n2nc(CO)c(C(=O)NCCCCc3ccccc3)n2)cc1	2.1
Cc1cccc(CNC(=O)c2ccc3nc(-c4ccccc4)c(-c4ccccc4)nc3c2)c1	-0.68
COc1ccc(C(=O)Nc2nc3nc(C)c(Cc4ccccc4)c(=O)n3[nH]2)cc1OC	-1.9
CSc1ccccc1NC(=O)CCC(=O)N(C)Cc1nc(C(C)C)no1	0.41

# (cont.)
SMILES	fixLJ activator
COc1ccc(C)cc1C(C(=O)O)N1CCCN(Cc2cccnc2)CC1 (configuration not stated)	0.65
CCNC(=O)c1ccc(NC(=O)c2ccnn2C(C)C)cc1Cl	-2.2
CCc1nn(CC(=O)N2CCN(c3ccc(Cl)cc3)CC2)c(=O)c2cc3occc3n12	-0.63
COc1cc(COc2cccc(-c3cncc(C(=O)O)n3)c2)cc(OC)c1	-0.63
CC(=O)OCc1cnc(C)c2oc(=O)c(C(=O)Nc3cc(F)ccc3C)cc12	2.2
Cn1c(=O)n(C)c2cc(NS(=O)(=O)c3ccc(Cl)cc3)c(NCc3ccccc3)cc21	1.3
COc1ccc(OC)c(C(O)CNC(=O)CN)c1 (configuration not stated)	-1.5
CC(=O)Nc1ccc2nc(-c3cc(C)ccc3C)[nH]c2c1	0.63
COc1ccc(CN2CC3c4ccccc4OC[C@]3(C(=O)O)C2)cc1OC (some centres not stated)	0.06
COc1cc(C2c3c(oc4ccc(C)cc4c3=O)C(=O)N2Cc2ccc(F)cc2)ccc1O (configuration not stated)	-1.4

# Additional compounds
SMILES	fixLJ activator
COc1cc(NC(=O)c2nnn(Cc3ccc(F)cc3)c2N)cc(OC)c1	-0.4
O=C(Nc1ccc(Br)cc1C(=O)c1ccccc1Cl)c1ccccc1F	-2
COc1cccc(CNC(=O)Cn2cccc2C(=O)c2ccccc2)c1	0.19
COc1cc2[nH]c(=O)n(Cc3ccc(C(=O)N4CCN(c5cc(Cl)ccc5C)CC4)cc3)c(=O)c2cc1OC	0.58
CCNC(=O)C1CCN(C(=O)Nc2ccc(OCC)c(C#N)c2)C1 (configuration not stated)	-1.1
Cc1nn(Cc2ccc(F)cc2)c(C)c1NC(=O)c1noc2c1CCc1ccccc1-2	0.83
O=C(Cc1ccsc1)N1CCC2(CC1)c1nc[nH]c1CCN2C(=O)C1CC1	0.96
COc1cccc(CNCCSc2nnnn2C)c1OCc1ccccc1F	-3
Cc1cccc(C)c1Nc1c(-c2ccccn2)nc2c(C)cccn12	-0.34
Cc1nnc(SCC2=C(C(=O)O)N3C(=O)[C@@H](NC(=O)Cn4cnnn4)[C@H]3SC2)s1	-1.4

# (further entries)
SMILES	fixLJ activator
CCn1c(C2CCCN(C(=O)c3ccc4[nH]ccc4c3)C2)nn(C)c1=O (configuration not stated)	0.98
Cc1ccc(S(=O)(=O)N2CCC(C(=O)Nc3cc(C)ccc3C)CC2)cc1	-2
COc1ccccc1-c1nnc(C2CCN(C(=O)c3cccc(Cl)c3)CC2)o1	-1.7
CC1=C(C(=O)NCc2ccc(Cl)cc2)C2(CCC(C)CC2)OC1=O (configuration not stated)	-1.6
CS(=O)(=O)N1CCn2nc(CNc3ncccn3)cc2C1	-2.6
CCOc1ccc(CC(=O)Nc2c(C(=O)c3ccccc3)oc3ccc(Cl)cc23)cc1OCC	-1.5
CCCc1nc2nc(C)c(NS(=O)(=O)c3ccc(F)cc3)c(=O)n2[nH]1	-0.95
CCOC(=O)c1cc2c(=O)n3ccccc3nc2n(CC(C)C)c1=NC(=O)C(C)Oc1ccccc1 (configuration not stated)	0.46
CCc1nc(C)sc1CNC(=O)c1nccc2ccccc12	-2.6
CCn1cc(C(=O)N2CCN(c3ccc(C)cc3)C(C)C2)c(=O)c2cc(S(=O)(=O)N3CCCC3)ccc21 (configuration not stated)	-0.22

# Next entries follow:
SMILES	fixLJ activator
COc1ccc(CC(=O)N2CC(O)C(Cc3cc(C)[nH]n3)C2)cc1OC (configuration not stated)	0.45
Cc1nc2ccc(S(=O)(=O)N(C)CC(=O)Nc3cccc(C(F)(F)F)c3)cc2s1	-1.1
Cc1oc(-c2ccccc2F)nc1CS(=O)(=O)CC(=O)N1CCN(c2ccccc2)CC1	-1
COc1ccccc1NC(=O)C(Cc1ccccc1)NS(=O)(=O)c1cccc2nsnc12 (configuration not stated)	-0.73
CCOc1ccccc1NC(=O)Cn1nnc2sc3c(c2c1=O)CCC(C(C)(C)C)C3 (configuration not stated)	0.96
Cn1cc(C(=O)NCC2CCN(CCn3cc(Cl)cn3)CC2)c2ccccc21	0.14
N#C/C(=C\c1ccc(OCc2ccc(Cl)cc2Cl)cc1)c1nc2ccccc2[nH]1	1.1
